Source: PubChem BioAssay
TRPML1 ag: human mucolipin-1 channel agonism. activation, % (no concentration beside the values). Q9GZU1. AID 624414. TRPML1-expressing cells, Ca2+ dye fluorescence, FDSS; host cell line not named in the record; reference of the full effect not given here. hit rate 0.12% among 410,000; in the data active = activation above about 50%; inconclusive = about 30% to 50%; inactive = below about 30%; further: 0% is about no effect; the text of the record puts the active cut at 80%
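In this qHTS format, compounds were pin-transferred onto Ca8-dye-loaded TRPML1-DL cells induced with Tet overnight, and intracellular Ca2+ fluorescence was recorded kinetically for 110 s after a 10 s baseline. A subsequent 4uM final 54-4 (EC80) addition followed by a second 110 s read served as the antagonist phase.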
Six1-Eya2 inh: inhibitors of human Six1/Eya2 interaction; AlphaScreen GST-Six1/His-Eya2 binding, biochemical; hits give low values; control for the full effect not named in the record; activity change, % (no concentration beside the values); hit rate 0.56% among 360,000; in the data active = activity change below about -65%; inconclusive = about -30% to -65%; inactive = above about -30%; further: on the % scale 0 is the no-effect control and ±100 the full control effect; compound concentration not given in the record
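Homogeneous AlphaScreen proximity assay pairing GST-Six1 with His-tagged Eya2 (added as 5X mix: 250 nM and 500 nM) in 50 mM Tris pH 8.0, 300 mM NaCl, 1 mM TCEP. Glutathione donor and nickel acceptor beads; 1 h, 37 °C, dark.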
TRPML1 inh: blocks the human TRPML1 channel. Q9GZU1. hit rate 0.02% among 390,000. TRPML1-inducible cells, Ca2+ dye fluorescence, FDSS; hits give low values; inhibition of EC80 agonist-evoked calcium signal. activity change, negative = inhibition, % (test concentration not listed); in the data active means activity change below about -50%; inconclusive means about -30% to -50%; inactive means above about -30%;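 further: stimulus is agonist 54-4 at its EC80 concentration; on the % scale 0 is the no-effect control and ±100 the full control effect; compound concentration not given in the record; the text of the record puts the active cut at -80%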
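TRPML1-DL cells, Tet-induced overnight (~16 h, 37 °C) at 1,500 cells/well, were loaded with Ca8 no-wash dye plus quencher for 45-90 min at room temperature. Compounds were pinned during FDSS kinetic reading; agonist 54-4 at EC80 (4 uM final) then added.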
D2 PAM: human D2 receptor positive allosteric modulation. P14416. DiscoveRx D2 beta-arrestin cells, luminescence, 90 min; 100% = 57 uM dopamine signal. potentiation, % (test concentration not listed). hit rate 0.23% among 360,000; active = potentiation of 50% or more; inconclusive = 30% to 50%; inactive = 30% or less;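 further: compound concentration not given in the record; tested on top of an EC20 dose of dopamine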
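PathHunter beta-arrestin assay in DiscoveRx D2 cells. Compounds were added with an EC20 of dopamine (50 nM final) for 90 min at 37 deg C. Luminescence was read 1 h after detection reagent, with 57 uM dopamine as the EC100 control.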
TRPV1 PAM: enhances activation of the human vanilloid receptor TRPV1 | Q8NER1 | potentiation, % at 8.33 µM | TRPV1-expressing cells, Fluo-8 calcium influx, capsaicin EC20 potentiation; host cell line not named in the record; control for the full effect not named in the record | hit rate 0.02% among 320,000; active means potentiation above 80%; inconclusive means 30% to 80%; inactive means below 30%; further: 0% is about no effect
Target sequence (Q8NER1 whole entry, looked up): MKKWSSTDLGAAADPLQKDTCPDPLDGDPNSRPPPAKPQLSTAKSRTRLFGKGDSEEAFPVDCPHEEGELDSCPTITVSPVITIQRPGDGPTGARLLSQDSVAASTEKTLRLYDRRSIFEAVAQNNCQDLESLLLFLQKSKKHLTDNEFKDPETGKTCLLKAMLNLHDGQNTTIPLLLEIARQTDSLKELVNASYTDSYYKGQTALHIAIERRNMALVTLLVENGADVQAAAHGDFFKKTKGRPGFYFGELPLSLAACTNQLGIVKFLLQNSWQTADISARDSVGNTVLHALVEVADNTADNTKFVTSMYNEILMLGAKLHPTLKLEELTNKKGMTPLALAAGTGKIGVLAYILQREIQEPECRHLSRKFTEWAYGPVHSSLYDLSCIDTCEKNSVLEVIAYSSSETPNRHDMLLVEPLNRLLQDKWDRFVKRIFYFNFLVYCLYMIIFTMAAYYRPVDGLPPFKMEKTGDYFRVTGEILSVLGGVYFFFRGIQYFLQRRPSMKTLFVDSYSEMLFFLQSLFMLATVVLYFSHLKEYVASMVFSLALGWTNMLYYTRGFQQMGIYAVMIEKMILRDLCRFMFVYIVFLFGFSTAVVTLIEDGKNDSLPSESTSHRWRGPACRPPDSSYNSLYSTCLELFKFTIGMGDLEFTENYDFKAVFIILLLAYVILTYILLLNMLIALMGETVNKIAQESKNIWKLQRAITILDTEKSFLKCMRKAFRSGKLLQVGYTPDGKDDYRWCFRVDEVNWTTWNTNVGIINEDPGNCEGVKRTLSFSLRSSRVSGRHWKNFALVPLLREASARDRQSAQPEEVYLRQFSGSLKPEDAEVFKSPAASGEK
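TRPV1-expressing cells were cultured overnight at 35.5C and loaded with Fluo-8 calcium dye for 40 to 90 min at room temperature. After a 10 s baseline, compound was added and calcium influx was read kinetically for 3 min (ex 480/em 520 nm).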
CtBP-E1A blk: CtBP/E1A binding inhibition | hit rate 0.49% among 340,000 | AlphaScreen GST-E1A/His-CtBP binding, 1536-well; hits give low values; control for the full effect not named in the record | activity change, % (concentration not given with the values); in the data active means activity change below about -65%; inconclusive means about -30% to -65%; inactive means above about -30%; further: on the % scale 0 is the no-effect control and ±100 the full control effect
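Protein mix (5X: 125 nM each GST-E1A, His-CtBP) was incubated with pinned compound 2 h at 37 deg C in dark, in 50 mM Tris pH 8.0 buffer with 300 mM NaCl. Glutathione donor and nickel acceptor beads followed; AlphaScreen signal read after 1 h.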
* = called active by the depositor; u = inconclusive; x = not tested or not shown. No enrichment for hits; any-hit rate near 0.95%.

SMILES | TRPML1 ag | Six1-Eya2 inh | TRPML1 inh | D2 PAM | TRPV1 PAM | CtBP-E1A blk
Cc1cc(S(=O)(=O)NCC(C)C)ccc1OCC(=O)NCc1ccco1 | 1.7 | -6 | 12 | -1 | 0 | 1
Cc1[nH]nc(-c2ccc(O)cc2O)c1-c1nc2ccccc2s1 | 0.4 | -2 | -13 | -12 | -6 | -3
O=C(OCc1c(Cl)nc2sccn12)c1cc2c(s1)CCCC2 | -0.3 | 7 | 37 | 4 | 3 | 4
Cc1ccc(-c2noc(C3CCCN(C(=O)c4ccc(Cl)cc4)C3)n2)o1 (stereo not drawn) | 0.6 | -14 | 2 | -3 | -8 | 1
C=CCn1c(SCc2cc(=O)n3ccsc3n2)nc2scc(C3CC3)c2c1=O | 2.6 | -14 | 46 | -17 | 15 | -9
Cc1ccc(CC2CC(=O)N(c3ccncc3)C2=O)cc1 (stereo not drawn) | -0.1 | 4 | 0 | 8 | -11 | 4
O=C(CN1C(=O)/C(=C/c2cccc(Br)c2)SC1=S)NCCCN1CCOCC1 | 1.1 | -15 | -13 | -31 | -2 | -16
COc1ccc(-c2ccc(=O)n(Cc3c(F)cccc3Cl)n2)cc1 | 2.0 | 3 | 14 | -12 | -6 | x
CCN(CC)S(=O)(=O)c1cc(C)c(C)cc1Br | 0.2 | 15 | 35 | 1 | -2 | 16
CC1CCN(c2ccc3nnc(CCC(=O)Nc4ccc(F)cc4)n3n2)CC1 | -1.3 | 0 | -5 | -4 | -10 | 3

The final 3 compounds of the part above are carried over, then new ones follow.
SMILES | TRPML1 ag | Six1-Eya2 inh | TRPML1 inh | D2 PAM | TRPV1 PAM | CtBP-E1A blk
COc1ccc(-c2ccc(=O)n(Cc3c(F)cccc3Cl)n2)cc1 | 2.0 | 3 | 14 | -12 | -6 | x
CCN(CC)S(=O)(=O)c1cc(C)c(C)cc1Br | 0.2 | 15 | 35 | 1 | -2 | 16
CC1CCN(c2ccc3nnc(CCC(=O)Nc4ccc(F)cc4)n3n2)CC1 | -1.3 | 0 | -5 | -4 | -10 | 3
Cc1[nH]c2ccccc2c1/C=N/Nc1cccc(C(=O)O)c1 | -0.4 | -6 | -12 | -8 | 29 | -5
CCCn1c(=S)[nH]c2cc(C(=O)N(CCO)Cc3ccccc3)ccc2c1=O | -1.5 | -4 | -6 | -2 | -9 | -6
O=C(NC(c1ccccc1)c1ccccc1)c1ccccc1 | 4.2 | -11 | 1 | -3 | x | -17
COC(=O)c1sc(N2CCN(Cc3ccccc3)CC2)nc1N | 1.2 | -26 | -13 | -17 | 21 | -30
Cc1cccc(-c2cnn(-c3ccccc3)c2N)c1 | 0.7 | 17 | 3 | -13 | -8 | 1
O=C(NCCN1CCOCC1)C1CC(=O)N(c2ccc(Cl)cc2)C1 (stereo not drawn) | 1.0 | 10 | -15 | -3 | 0 | 4
CCCCN1C(=O)C2C(C(=O)Nc3cccc(OC)c3)C3C=CC2(O3)C1C(=O)NC1CCCCC1C (stereo not drawn) | -0.8 | 6 | 13 | -14 | -7 | -2
CC(=O)Nc1ccc(NC(=O)CSc2ccc([N+](=O)[O-])cn2)cc1 | -0.2 | 1 | -12 | 6 | 9 | 5
CCOc1cc(/C=N/OC(C)=O)ccc1OCc1ccccc1 | 0.8 | 16 | 11 | -16 | 1 | -13
Cc1cc(C)nc(N2CCCC(C(=O)Nc3cc(F)ccc3C)C2)n1 (stereo not drawn) | 0.1 | 11 | -9 | -15 | -3 | 1
Cn1c(=O)cc(OCC(=O)NCCc2ccc(Cl)cc2)c2ccccc21 | 0.5 | 4 | -25 | 1 | -13 | 4
COCCCn1c(-c2ccccc2)nc2ccccc2c1=O | -1.1 | 3 | -3 | 7 | -6 | -1
O=C(NNC(=O)c1ccc(Cl)nc1)c1ccc(Br)cc1 | -1.1 | 3 | 7 | -2 | x | -1
CCOc1ccc(Cc2c(C)[nH]c3ccc(C(=O)O)cc3c2=S)cc1 | 0.5 | 2 | 0 | -8 | 25 | -2
CC(=O)N1CCN(S(=O)(=O)c2cccc(C(=O)NNC(=O)c3ccc(Br)cc3)c2)CC1 | -0.9 | 0 | -1 | -3 | x | x
Cn1nc(-c2ccccc2)c(C(=O)Nc2ccc(Cl)cc2)c1Cl | -0.3 | 7 | -10 | -4 | x | 3
COC(=O)c1ccc(C(=O)NC(=S)Nc2nc3c(s2)CCCC3)cc1 | -0.4 | 0 | 2 | 10 | -3 | -11
CCN(CC)C(=O)c1ccc(COc2ccc(Cl)c(C)c2)o1 | 0.7 | 4 | 18 | -3 | 0 | 0
CCC(=O)N(c1ccc(C(=O)O)cc1)c1nc(-c2ccc(OC)cc2)c(C)s1 | 1.3 | 5 | 27 | -8 | u | -3
O=[N+]([O-])c1ccc(-c2c(-c3ccccc3)ncc3cc(F)ccc23)cc1 | 2.3 | -20 | 52 | -4 | -3 | u
CCOC(=O)c1c(C)nc(-c2ccccc2)nc1NC(=O)C(C)C | -1.1 | 15 | -9 | -26 | 0 | 14
C[C@@H]1CCC2[C@](C)(CO)[C@@H](O)CC[C@]2(C)[C@@]12CCC(CO)(CCO)O2 (stereo partly drawn) | 0.4 | 10 | 17 | -8 | -5 | x
O=C(Cc1ccccc1)NNC(=S)Nc1ccc(Cl)cc1 | 0.5 | 4 | 11 | -19 | -5 | -1
CCCCC(C(=O)O)C(C)CC(=O)Nc1nccs1 (stereo not drawn) | x | 2 | x | -7 | 16 | -3
CCOC(=O)NN1C(=O)c2ccccc2NC1c1cccc(O)c1 (stereo not drawn) | -0.6 | -7 | -24 | 4 | 1 | -16
O=C1CC2c3ccccc3C1C1C(=O)N(CCc3ccccc3)C(=O)C21 (stereo not drawn) | 0.7 | 4 | 11 | -9 | 1 | x
COc1ccc(OC)c2sc(NC(=O)CCS(=O)(=O)c3ccccc3)nc12 | 0.2 | -4 | 0 | -5 | x | 4
Cc1ccc([N+](=O)[O-])cc1NC1CC(O)C(CO)O1 (stereo not drawn) | -0.2 | 17 | 21 | -2 | -5 | 8
CCCc1cc(=O)oc2cc(C)cc(OCC(=O)NCc3ccccn3)c12 | -0.7 | -4 | -10 | 17 | -12 | -6
O=C(CCNC(=O)c1ccc([N+](=O)[O-])cc1)NCc1ccco1 | 2.2 | 1 | 22 | 0 | 1 | -12

Single records (already shown):
Profile of Cc1cc(S(=O)(=O)NCC(C)C)ccc1OCC(=O)NCc1ccco1 = TRPML1 ag: 1.7; Six1-Eya2 inh: -6; TRPML1 inh: 12; D2 PAM: -1; TRPV1 PAM: 0; CtBP-E1A blk: 1
Profile of CC(=O)N1CCN(S(=O)(=O)c2cccc(C(=O)NNC(=O)c3ccc(Br)cc3)c2)CC1 = TRPML1 ag: -0.9; Six1-Eya2 inh: 0; TRPML1 inh: -1; D2 PAM: -3; TRPV1 PAM: x; CtBP-E1A blk: x

More results:
SMILES | TRPML1 ag | Six1-Eya2 inh | TRPML1 inh | D2 PAM | TRPV1 PAM | CtBP-E1A blk
CCN(c1cccc(C)c1)S(=O)(=O)c1cnc[nH]1 | 0.4 | 4 | -2 | 7 | -13 | 4
CCOC(=O)c1cn(CC)c2cc3c(cc2c1=O)OCO3 | -0.6 | 2 | -3 | -10 | 16 | 3
CCOC(=O)c1c(NC(=O)CN2CCOCC2)sc2c1CC(C)(C)OC2 | 1.2 | 1 | 11 | 3 | 5 | -2
CC(C)n1cc(/C=C2/NC(=O)NC2=O)c2ccccc21 | 0.8 | -5 | 2 | -3 | 6 | -8
COc1ccc(CCN(C)CC(=O)Nc2cc(C)nc3ccccc23)cc1OC | 0.7 | -3 | 6 | -10 | 4 | 5
O=C(NCc1ccccc1Cl)c1ccc2sc([C@H]3C[C@H](O)[C@@H](CO)O3)nc2c1 | 0.3 | 1 | x | 4 | x | u
COc1ccc2oc(C(=O)OCC(=O)NC3CCCCC3)c(C)c2c1 | -1.3 | 2 | 26 | 14 | -16 | 0
Cc1cc(O)c(NC(=O)c2ccc(Br)o2)cc1C | 1.9 | -1 | 23 | 3 | -35 | -3
CC1CCN(C(=O)c2ccc(S(=O)(=O)N3CCCCCC3)cc2)CC1 | 0.1 | 0 | 9 | -3 | x | 0
O=C(Cc1ccc(Br)cc1)N(Cc1ccccc1)c1ccccn1 | 0.4 | 11 | -12 | -8 | -2 | 10
CCCCOC(=O)c1cc(=O)[nH]c2ccccc12 | 1.9 | 2 | 8 | -6 | x | 0
Cc1ccc(O)c(C(=O)CC(=O)c2ccc(C(C)(C)C)cc2)c1 | 0.8 | -14 | 3 | -4 | 1 | 2
Cc1ccnc(N(C(=O)c2cccs2)C(=O)c2cccs2)c1 | 1.7 | 3 | 23 | 2 | 3 | -19
COc1cc(/C=C/C(=O)OCC(=O)NC(=O)NC2CCCC2)ccc1OCC#N | 2.2 | -3 | 24 | -3 | 4 | 3
O=C(Nc1ccc(Nc2ccccc2)cc1)N1CCOCC1 | -0.4 | -11 | -4 | -4 | -14 | -2
COc1ccc(S(=O)(=O)Nc2ccc(S(=O)(=O)N3CCCC3)cc2)cc1 | -0.3 | 7 | 20 | -6 | 5 | -1
O=C(NCC1CCCO1)c1ccc2c(c1)C(=O)N(C1CCCCC1)C2=O (stereo not drawn) | 1.5 | 5 | -5 | -7 | -21 | 0
O=c1cc(CN2CCOCC2)c2c(ccc3ccccc32)o1 | 1.4 | -2 | -1 | 2 | -10 | 1
O=C(Nc1ncc(Cc2ccccc2)s1)C1=NCCN1 | -0.3 | -18 | -5 | 3 | -36 | 0
CC(C)(C)c1ccc(CC(=O)N2CCC2(C)C(=O)Nc2cccc3ccccc23)cc1 (stereo not drawn) | -0.8 | -7 | x | -5 | x | -1
CCCCC1OC23CCCCC2C(C#N)(C#N)C1(C#N)C(=N)O3 (stereo not drawn) | 0.9 | 1 | 15 | -10 | 2 | -6
CC(C)OCCCn1c(=N)c(S(=O)(=O)c2ccccc2)cc2c(=O)n3ccccc3nc21 | -0.5 | -4 | 31 | -2 | -8 | x
CN1CCN(c2ccccc2NC(=O)c2ccc(N3CCOCC3)c([N+](=O)[O-])c2)CC1 | 0.7 | -6 | 8 | -5 | -6 | -4
CCN(CC)C(=O)CSc1nc2c(sc(=S)n2-c2ccccc2)c(=O)n1-c1ccc(OC)c(OC)c1 | x | -6 | x | 6 | -11 | 0
COc1ccccc1NS(=O)(=O)c1ccc(C)c(C(=O)NCC(c2ccco2)N2CCCCC2)c1 (stereo not drawn) | 1.2 | -3 | -18 | -4 | -6 | -4
COc1c(OC(C)=O)ccc(/C=C/c2ccc3cccc(OC)c3n2)c1[N+](=O)[O-] | 1.3 | -8 | -3 | -12 | -6 | -8
CC1(c2ccccc2)NC(=O)N(CC(=O)NNC(=O)c2cccc(Cl)c2)C1=O (stereo not drawn) | -0.2 | -2 | -2 | -3 | 1 | -2
O=C(NCc1ccc(Cl)cc1)c1ccncc1 | 0.5 | -1 | -2 | 1 | -34 | 3
Cn1c(/C(C#N)=C/c2ccncc2)nc2ccccc21 | 1.3 | 6 | -29 | -7 | 1 | x
Clc1ccc(-c2csc(N3CCCCCC3)n2)cc1 | x | -25 | x | 7 | -3 | x
FC(F)C(F)(F)Oc1cccc(-c2n[nH]c(=S)n2Cc2ccccc2)c1 | 3.4 | -5 | -1 | -2 | -6 | -16
